# PINK1 expr mod = PINK1 expression modulation | PINK1 immunofluorescence, high-content cytometry, 24 h | Potency, µM (top dose mostly 76.6 µM), inactives show at the highest dose activation (PINK1 increase), most hits filed as activators | hit rate 0.2% among 410,000 | AID 624263; active = well fitted activation curve with a large enough effect; inconclusive = small, poorly fitted or top-dose-only effect; inactive = flat fitted curve, though single readings scatter; cell line not stated here;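 also: potency is read from the fitted curve at half-maximal effect; % of control where 0% means no effect; nearly all actives have a fitted effect of over 65% in size; a mitochondrial uncoupler was the plate control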
#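 Stable cell line treated 24 h with compounds at 5 concentrations (CCCP controls), then fixed and immunostained for PINK1 plus nuclear and cell stains; PINK1 immunofluorescence quantified by laser-scanning microplate cytometry.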
# TRPV1 PAM = enhances activation of the human vanilloid receptor TRPV1; Q8NER1; TRPV1-expressing cells, Fluo-8 calcium influx, capsaicin EC20 potentiation; host cell line not named in the record; control for the full effect not named in the record; potentiation, % at 8.33 µM; hit rate 0.02% among 320,000; AID 540277; active means potentiation above 80%; inconclusive means 30% to 80%; inactive means below 30%; also: 0% is about no effect
# Target sequence (Q8NER1 whole entry, looked up): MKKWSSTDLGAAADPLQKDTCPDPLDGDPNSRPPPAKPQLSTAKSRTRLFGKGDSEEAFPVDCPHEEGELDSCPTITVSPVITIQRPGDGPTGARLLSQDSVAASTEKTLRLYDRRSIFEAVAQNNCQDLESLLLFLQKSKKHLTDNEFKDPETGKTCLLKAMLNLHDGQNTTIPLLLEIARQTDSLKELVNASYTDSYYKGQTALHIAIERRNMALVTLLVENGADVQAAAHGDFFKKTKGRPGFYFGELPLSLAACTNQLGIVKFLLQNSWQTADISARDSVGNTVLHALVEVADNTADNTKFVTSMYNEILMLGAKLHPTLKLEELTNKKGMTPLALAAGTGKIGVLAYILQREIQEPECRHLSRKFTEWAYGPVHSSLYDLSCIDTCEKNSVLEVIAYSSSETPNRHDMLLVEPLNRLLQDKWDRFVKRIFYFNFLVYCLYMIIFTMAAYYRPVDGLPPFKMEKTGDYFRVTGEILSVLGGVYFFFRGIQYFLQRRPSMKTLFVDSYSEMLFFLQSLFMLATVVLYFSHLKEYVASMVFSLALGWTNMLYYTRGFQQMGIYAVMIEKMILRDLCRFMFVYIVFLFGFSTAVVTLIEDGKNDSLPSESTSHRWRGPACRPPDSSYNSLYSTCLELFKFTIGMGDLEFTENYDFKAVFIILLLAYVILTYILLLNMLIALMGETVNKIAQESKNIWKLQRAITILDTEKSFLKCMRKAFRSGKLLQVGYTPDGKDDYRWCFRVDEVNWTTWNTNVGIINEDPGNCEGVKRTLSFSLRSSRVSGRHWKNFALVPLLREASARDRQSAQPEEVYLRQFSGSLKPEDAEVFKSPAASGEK
#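 TRPV1-expressing cells were cultured overnight at 35.5C and loaded with Fluo-8 calcium dye for 40 to 90 min at room temperature. After a 10 s baseline, compound was added and calcium influx was read kinetically for 3 min (ex 480/em 520 nm).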
# TRPML1 inh = inhibitors of human TRPML1 channel; hit rate 0.02% among 390,000; TRPML1-inducible cells, Ca2+ dye fluorescence, FDSS; hits give low values; inhibition of EC80 agonist-evoked calcium signal; activity change, negative = inhibition, % (test concentration not listed); in the data active means activity change below about -50%; inconclusive means about -30% to -50%; inactive means above about -30%;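 also: stimulus is agonist 54-4 at its EC80 concentration; % is scaled to controls: 0 for no effect and ±100 for the full control effect; compound concentration not given in the record; the text of the record puts the active cut at -80%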
#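 Tet-induced TRPML1-DL cells loaded with Ca8 no-wash calcium dye were read kinetically on FDSS. Compound addition was followed by EC80 agonist 54-4 (4 uM final); inhibition was read over 110 s.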
# Sfp PPTase inh = Sfp phosphopantetheinyl transferase inhibition | Biochemical Sfp PPTase activity, qHTS | Potency, µM, without a hit: max response, negative = inhibition, hits mostly inhibitors | hit rate 3.5% among 310,000; active = well fitted inhibition curve with a large enough effect; inconclusive = small, poorly fitted or top-dose-only effect, or another doubt; inactive = no such curve, though single readings can be large or run the other way;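 also: the enzyme is Sfp with the accession as filed and its product quenches rhodamine fluorescence; potency is read from the fitted curve at half-maximal effect; 0% = enzyme reaction without inhibitor and -100% = no enzyme wells; top concentration of the series not given in the record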
#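 After 15 min at room temperature with compound, 15 nM Sfp received 5 uM rhodamine-CoA plus 12.5 uM BHQ-2-ybbR (50 mM Hepes pH 7.6, 10 mM MgCl2). Rate came from the fluorescence difference over 30 min, ex 525/em 598 nm.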
# TRPML1 agonist = agonists of human TRPML1 channel | Q9GZU1 | TRPML1-expressing cells, Ca2+ dye fluorescence, FDSS; host cell line not named in the record; reference of the full effect not given here | activation, % (test concentration not listed) | hit rate 0.12% among 410,000 | AID 624414; in the data active = activation above about 50%; inconclusive = about 30% to 50%; inactive = below about 30%; also: 0% is about no effect; the text of the record puts the active cut at 80%
#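 Kinetic FDSS Ca2+ read in Tet-induced TRPML1-DL cells (ABD Ca8 dye plus quencher, 45-90 min RT loading): baseline, then compound, then 110 s agonist window; EC80 agonist 54-4 at 4uM final added afterwards for a 110 s antagonist window.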
# Menin MLL FP FL = inhibitors of human menin-MLL interaction, wild-type MLL peptide | 290,000 tested, under 10 active | AID 1766 | FP activity change, % at 61.4 µM | Fluorescence polarization, fluorescein-MLL peptide displacement from menin; inconclusive = falling polarisation curve, or a change in total fluorescence; inactive = total fluorescence flat and polarisation flat or rising; no compound was filed as active; the % refers to the polarisation; negative = inhibition;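 also: % of control where 0% means no effect; inhibitors lower the polarisation; unlabelled MLL peptide was the positive control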
# ClpP mod = qHTS Assay for Activators of ClpP; Potency, µM (series often up to 57.5 µM), for the others: top-dose activity change, negative = active; hit rate 1.9% among 340,000; ATP-dependent Clp protease proteolytic subunit (Bacillus subtilis (strain 168)), P80244; AID 651965, 2013; purified B. subtilis ClpP, FRET peptide cleavage, 20 min; active = well fitted falling curve with a large enough effect; inconclusive = small, poorly fitted or top-dose-only effect; inactive = no such curve, though single readings can be large or run the other way; also: potency is read from the fitted curve at half-maximal effect; the source files actives as falling curves though it sought activators and does not explain the sign; nearly all actives have a fitted effect of over 65% in size; many hits overshoot -100%
# Target sequence (P80244 whole entry, looked up): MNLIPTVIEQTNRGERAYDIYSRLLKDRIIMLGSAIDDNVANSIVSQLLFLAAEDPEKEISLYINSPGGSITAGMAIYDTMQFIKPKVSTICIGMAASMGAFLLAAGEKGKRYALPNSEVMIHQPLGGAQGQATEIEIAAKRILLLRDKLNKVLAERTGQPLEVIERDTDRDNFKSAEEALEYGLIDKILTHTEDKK
#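 ClpP 10 microg/mL final, pH 8 Tris/KCl buffer with BSA, glycerol, Tween-20; compound pinned in; FRET-FV substrate; RT 20 min; Ex320/Em430; ΔFRET vs ADEP 5.8 microM, DMSO, no enzyme.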
# * hit, by the source's call; ? = inconclusive; nt = not tested or not shown; & = joins results of further samples; [ ] = another dose, or the depositor's remark.
SMILES,PINK1 expr mod,TRPV1 PAM,TRPML1 inh,Sfp PPTase inh,TRPML1 agonist,Menin MLL FP FL,ClpP mod
CCCS(=O)(=O)c1nc(S(=O)(=O)c2ccc(C)cc2)c(NCc2ccc3c(c2)OCO3)s1,1.9%,-8,2,9%,0.4,-2.2,-1.8%
O=C(CSC1=Nc2ccccc2C2=NC(CC(=O)NC3CCCCC3)C(=O)N12)NCc1ccco1 (stereo not drawn),0.1%,-2,-6,-3%,0.3,6.0,?
CN1CCN(C2OC(=O)c3ccccc32)CC1 (stereo not drawn),-24%[38.3 µM],6,4,25%,-0.5,-2.2,-2.5%
COc1ccccc1NC(=O)CSc1nnc2c3ccccc3n(C(C)C)c2n1,4.4%,nt,21,nt,4.7,nt,-1.2%
CCCCN1C[C@H](CSC)[C@@H](CC(=O)NC)C1=O,-0.6%,nt,1,nt,-0.5,nt,0.3%
COc1ccc(S(=O)(=O)N2CCOC2CNC(=O)C(=O)NCc2ccncc2)cc1OC (stereo not drawn),-1.6%,4,36,19%,1.0,nt,0.6%
CC(=O)c1cc2c(cc1NC(=O)c1ccco1)OCCO2,3.7%,-4,4,19%,-1.2,-2.1,nt
O=C(c1ccc2c(c1)OCO2)N1CCN(c2ccccc2)CC1,8.0%,-1,13,-16%,0.2,-2.2,-1.3%
CC[C@]12c3[nH]c4ccccc4c3CCN1C(=O)C(CC(=O)NCC13CC4CC(CC(C4)C1)C3)C[C@@H]2C(=O)N1CCN(C(=O)c2ccco2)CC1 (stereo partly drawn),1.0%,nt,-4,nt,8.1,nt,0.9%
O=C(NCc1ccccc1F)c1ccc(S(=O)(=O)N2CCCCCC2)cc1,0.2%,-15,-2,nt,0.5,nt,1.7%
Cc1nc(-c2ccc(S(=O)(=O)Nc3ccc(S(N)(=O)=O)cc3)cc2)co1,-1.7%,7,-15,5%,0.1,-3.8,-3.7%
CCN1c2ccccc2-c2nc(SCC(=O)Nc3cc(F)ccc3F)ncc2S1(=O)=O,1.3%,nt,-3,nt,1.9,nt,4.3%
CCN(CC)C(=O)C1CCCN(Cc2ccccc2)C1 (stereo not drawn),3.1%[38.3 µM],7,3,-13%,-0.2,3.4,1.1%
Cc1[nH]c2ccccc2c1SCc1nnc(SCc2ccccc2)n1C,-0.2%,-18,19,-5%,-0.7,1.7,?
CCCOc1ccc(N2C(=O)CC(N3CCN(c4ccccc4OC)CC3)C2=O)cc1 (stereo not drawn),0.8%,13,-3,13%,1.0,4.0,1.0%
OCC(O)/C=N/Nc1nc(N2CCCCC2)nc(N2CCCCC2)n1 (stereo not drawn),-1.7%,6,8,13%,2.6,0.4,-1.7%
O=C(NCc1ccccc1Cl)C1CCN(S(=O)(=O)c2ccc(-n3cnnn3)cc2)CC1,1.0%,10,1,6%,1.0,-1.8,nt
COc1ccccc1N1C(=O)C2CCC(c3ccccc3)CC2C1=O (stereo not drawn),0.9%,7,10,4%,-0.1,1.1,-2.4%
O=c1c2sccc2n(Cc2cc(=O)n3ccccc3n2)c(=O)n1-c1ccccc1,0.9%,11,-1,6%,0.6,-1.0,?
Cc1ccc(NC(=O)c2c(-c3c(F)cccc3Cl)noc2C)cc1F,-0.5%,-16,9,24%,2.2,4.2,0.3%
Cc1ccc(SCC(=O)OC(C)C(=O)N2CCc3ccccc32)cc1 (stereo not drawn),3.2%,-10,2,nt,-0.1,nt,-3.9%
CC(=O)Oc1ccc(N2C(=O)C3C4C=CC(CO)(O4)C3C2=O)cc1 (stereo not drawn),6.7%,6,-10,16µM*,-0.6,0.8,-0.8%
CCn1cc2nc(SCc3cccc(C(F)(F)F)c3)n(Cc3ccc(Cl)cc3)c(=O)c2n1,2.4%,nt,72,nt,0.5,nt,-1.6%
COc1ccc(S(=O)(=O)N2CCN(C(=O)c3ccc(=O)[nH]n3)CC2)cc1OC,-3.5%,11,-11,nt,-0.2,nt,1.2%
COc1cccc(N=c2oc3ccc(OC)cc3cc2-c2nc3ccccc3[nH]2)c1,1.9%,13,3,?,0.2,-0.2,2.1%
CCOC(=O)c1cc(NC(=O)CSCCO)ccc1Cl,-2.0%,?,-11,-6%,-0.4,0.9,-1.6%
CCOc1ccc(C(C)=O)cc1COC(=O)C(C)N=C1NS(=O)(=O)c2ccccc21 (stereo not drawn),0.9%,14,-8,16%,0.1,4.9,nt
CCCCN=C1CC(C)(C)CC(=O)/C1=C(/O)CCC,-1.6%,-19,6,7%,-0.2,-1.7,0.5%
O=C(CCc1ccc(S(=O)(=O)N2CCOCC2)cc1)N1CCc2ccccc2C1,2.2%,-18,-2,13%,-1.2,0.3,424%
CC(=O)Nc1ccc(S(=O)(=O)NCC2(N3CCOCC3)CCCCC2)cc1,1.0%,-9,-4,nt,1.2,nt,?
CC(=O)Nc1ccc(-c2nnc(SCC(=O)c3ccc4c(c3)Cc3ccccc3-4)n2C)cc1,?,16,5,89µM*,-0.2,2.2,-14%
CCNC(=O)NC(=O)COC(=O)CNC(=O)COc1ccccc1,-1.8%,3,-15,6%,4.9,1.1,0.6%
N=C1C(c2ccccc2)=C(O)CN1c1cccc(S(=O)(=O)NCc2ccco2)c1,-0.8%,-17,9,4%,0.0,2.4,-1.1%
Cc1cccnc1NC(=O)CCCNC(=O)c1ccc(Cl)cc1,-0.1%,-3,-10,nt,-0.3,nt,1.5%
O=C(CN1C(=O)C2CC=CCC2C1=O)Nc1nc(-c2ccc(F)cc2)cs1 (stereo not drawn),1.0%,-9,-4,nt,3.2,nt,-2.9%
CC(C)COc1ccc(C(=O)Nc2sc3c(c2C(=O)O)CC(C)(C)OC3)cc1,1.4%,-5,17,-23%,1.4,-5.8,nt
O=C(C1CC1)N(CCN(C(=O)C1CC1)c1ccccc1)c1ccccc1,1.4%,3,-2,3%,-0.2,7.4,0.6%
COc1cccc(/C=N/Nc2cc(Cl)nc(C)n2)c1O,-1.9%,-3,-4,-2%,-0.3,-2.9,-6.3%
COCCCn1c(=N)c(C(=O)NC2CCCCC2)cc2c(=O)n3ccccc3nc21,-1.1%&-1.8%,11,8&-1,-1%,-1.2&-0.4,2.7,3.5%&-2.8%
Cc1ccc(C)c(-n2c(C)cc(/C=N/NC(=O)c3c(C)nc4cc(C)ccn34)c2C)c1,9.8%,-2,-5,-15%,1.2,1.2,-3.3%
Cc1cccc(-c2nn(-c3ccccc3)cc2C(=O)N(C)CC(=O)Nc2ccc(N3CCOCC3)cc2)c1,2.8%,-4,1,nt,-0.9,nt,-9.1%
CC1=CC(C)(C)N2C(=O)C(=O)c3cc(OC(=O)c4ccco4)cc1c32,0.8%,-4,46,-4%,0.5,-2.1,nt
COc1ccc(Cl)cc1NS(=O)(=O)c1ccc(S(=O)(=O)N2CCCC2)cc1,0.8%[38.3 µM],-20,0,-3%,0.2,-0.6,2.5%
O=[N+]([O-])c1ccc(Cl)cc1CNc1ccc(F)c(F)c1,3.0%,-3,-13,3%,-0.2,6.0,-1.8%
COc1ccccc1NC(=O)c1cc(C(=O)O)ccc1C(=O)O,-0.7%,3,6,4%,-0.5,-1.3,22%

# Sfp PPTase inh, what is marked active above.
mol	PINK1 expr mod	TRPML1 inh	Sfp PPTase inh	Menin MLL FP FL
CC(=O)Oc1ccc(N2C(=O)C3C4C=CC(CO)(O4)C3C2=O)cc1 (stereo not drawn)	6.7%	-10	16µM*	0.8
CC(=O)Nc1ccc(-c2nnc(SCC(=O)c3ccc4c(c3)Cc3ccccc3-4)n2C)cc1	?	5	89µM*	2.2

# Further structures follow.
SMILES,PINK1 expr mod,TRPV1 PAM,TRPML1 inh,Sfp PPTase inh,TRPML1 agonist,Menin MLL FP FL,ClpP mod
COc1ccc(N2CCN(C(=O)C3CCN(c4nc5ccc(C)cc5[nH]4)CC3)CC2)cc1,-1.3%,nt,15,nt,1.9,nt,-5.8%
CC1=C(C(=O)N(C(C)C)C(C)C)CC(CC(=O)NCCCN(C)C)C(=O)N1Cc1ccc(F)cc1 (stereo not drawn),-0.5%,nt,nt,nt,-0.8,nt,0.4%
Cc1csc(SCC(=O)Nc2ncc(Cl)c(C)c2Cl)n1,-1.2%,6,-16,-5%,3.1,2.3,3.1%
CCN(C(=O)COC(=O)c1cc(=O)[nH]c2ccccc12)C1CCS(=O)(=O)C1 (stereo not drawn),-0.4%,10,5,-11%,0.3,3.2,?
Cc1snc2sc(C(=O)c3ccc(F)cc3)c(N)c12,-0.5%,3,-6,40µM*,0.0,17,nt
C[C@@H]1CN([C@H](C)CO)S(=O)(=O)c2ccc(C#CCN(C)C)cc2O[C@@H]1CN(C)Cc1ccccc1F,-0.8%,nt,-5,nt,-0.1,nt,-0.7%
Nc1ccc(C(=O)N2CCN(S(=O)(=O)c3ccc(Br)cc3)CC2)cc1[N+](=O)[O-],-1.2%,5,-2,nt,0.4,nt,0.4%
O=C(O)CC(CC(=O)O)n1cccc1,2.0%,nt,-28,nt,-0.5,nt,0.7%
OCCOc1ccc(CN2CCN(CCCc3ccccc3)C(CCO)C2)cc1 (stereo not drawn),0.2%,10,-5,3%,0.3,-0.5,1.3%
CCCCn1c(N)c(N(CC)C(=O)CSc2nnnn2-c2cc(C)ccc2C)c(=O)[nH]c1=O,2.2%,-3,-16,-1%,-0.4,0.3,0.5%
CSc1ccccc1NC(=O)c1ccccc1C,2.2%,10,-2,-3%,2.3,7.0,-1.4%
COc1ccc(Cl)cc1NC(=O)COc1ccc(S(=O)(=O)N2CCOCC2)cc1C,7.9%,27,10,16%,-0.5,-0.1,nt
CCCCNC(=O)C1(C)CCN1Cc1cccc2c(OC)cc(C(=O)OCC)cc12 (stereo not drawn),-1.6%,nt,25,nt,0.5,nt,-11%
Cc1ccc2oc(=O)n(Cc3ccccc3OC(C)C)c2c1,-2.5%,-13,33,-15%,1.8,5.1,2.2%

# Two records picked at random from those above, as already listed:
SMILES,PINK1 expr mod,TRPV1 PAM,TRPML1 inh,Sfp PPTase inh,TRPML1 agonist,Menin MLL FP FL,ClpP mod
CC1=C(C(=O)N(C(C)C)C(C)C)CC(CC(=O)NCCCN(C)C)C(=O)N1Cc1ccc(F)cc1 (stereo not drawn),-0.5%,nt,nt,nt,-0.8,nt,0.4%
C[C@@H]1CN([C@H](C)CO)S(=O)(=O)c2ccc(C#CCN(C)C)cc2O[C@@H]1CN(C)Cc1ccccc1F,-0.8%,nt,-5,nt,-0.1,nt,-0.7%

# Screens deposited in PubChem by National Center for Advancing Translational Sciences (NCATS).

# No enrichment for hits, and some 4.4% of all compounds hit somewhere here.
